Assay outcomes from PubChem.
Vif TR-FRET: HIV-1 Vif–A3G interaction blockers – biochemical, TR-FRET, GST-Vif 1-94, biotin-A3G peptide, dose response retest, primary screen (AID 1117319) | TR-FRET GST-Vif / biotin-A3G peptide binding; higher % means a stronger effect; test concentration not given here; strong numbers were not always called active | one-dose inhibition, %; IC50 in µM for titrated hits | 260,000 tested, 0.57% active;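 active = above the screen mean plus three standard deviations and confirmed in dose response; inconclusive = results disagree or hit not tested in dose response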;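 also: Vif residues 1-94 fused to GST binding biotinylated APOBEC3G peptide 110-148; 0% = full assay without inhibitor and 100% = GST in place of GST-Vif; retest series ran down from 100 µM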
FGF22 binding: FGF22 (human) thermal shift binding; Q9HCT0; recombinant FGF22 thermal shift, SYPRO orange fluorescence; percent of sucrose octasulfate shift, DMSO zero; calls only at 9.99 µM; 340,000 tested, 1.5% active;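 active = melting point raised past a set limit in the mean and every replicate; inconclusive = no clear call; three in four hits are not shown here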
Target sequence (Q9HCT0 whole entry, looked up): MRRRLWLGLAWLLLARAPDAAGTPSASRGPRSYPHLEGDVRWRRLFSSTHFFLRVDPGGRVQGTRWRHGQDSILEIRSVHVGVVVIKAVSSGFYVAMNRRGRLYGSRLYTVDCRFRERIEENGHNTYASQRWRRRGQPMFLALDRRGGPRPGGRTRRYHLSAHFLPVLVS
MLL AF4-AF9 inh: MLL-AF4/AF9 protein interaction inhibition; AID 651704; AlphaScreen, biotin-AF4 peptide binding to FLAG-AF9; inhibition, % at 10 µM; 350,000 tested, 0.47% active;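 active = every replicate reaching a set inhibition limit, whatever the replicate mean, cut at about 25% in these data; inconclusive = mean inhibition reaches that limit but some replicates miss it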;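 also: 0% = plate neutral control median and 100% = total signal loss; the record names both 10 and 1 µM as test concentration; the first replicate is given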
ALR H2O2 inh: inhibitors of human sulfhydryl oxidase ALR; 290,000 tested, 3.8% active; inhibition, % (concentration not given with the values); P55789; purified ALR, DTT oxidation, H2O2 HRP-luminol luminescence;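 active = mean and each replicate at 75% or more; inconclusive = only one of the two met; inactive = neither met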;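 also: stock transfer was 7.5 nL into about 7.5 µL; 0% = neutral wells and 100% = wells with inactivated enzyme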
Target sequence (P55789 whole entry, looked up): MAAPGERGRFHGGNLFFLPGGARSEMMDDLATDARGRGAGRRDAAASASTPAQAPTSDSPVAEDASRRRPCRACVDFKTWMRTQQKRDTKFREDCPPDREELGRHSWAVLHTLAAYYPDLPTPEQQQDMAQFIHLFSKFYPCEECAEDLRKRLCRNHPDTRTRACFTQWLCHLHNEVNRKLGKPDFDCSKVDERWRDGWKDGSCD
Ecoli rRNA inh: inhibitors of bacterial rRNA selective over humanized ribosomes; E. coli WT GFP vs humanized-ribosome RFP mutants, fluorescence, 24 h; stronger effect = lower value; DMSO median 0, no signal -100; GFP signal change (wild-type ribosome), % (concentration not given with the values); 350,000 tested, 1.6% active;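 active = significant combined selectivity score with lowered wild-type GFP, culture density cut under 30%, mutant RFP and density less affected; inactive = any of these conditions unmet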; also: one replicate is shown; some compounds called inactive have numbers as strong as hits
HNF4A DNA FP: change in binding of human HNF4 alpha to DNA. HNF4a-FITC DNA binding, fluorescence polarization, 1 h. activity change, % at 10 µM. 360,000 tested, 0.3% active. AID 1224865; in the data active = activity change above about 30%, passing the limit was not always enough;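 also: controls were the assay level and a saturating level of protein; the project sought stronger binding though the title names inhibitors; some compounds called inactive have numbers as strong as hits; positive values seem to mean higher polarization but the record does not say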
Target sequence (P41235 whole entry, looked up): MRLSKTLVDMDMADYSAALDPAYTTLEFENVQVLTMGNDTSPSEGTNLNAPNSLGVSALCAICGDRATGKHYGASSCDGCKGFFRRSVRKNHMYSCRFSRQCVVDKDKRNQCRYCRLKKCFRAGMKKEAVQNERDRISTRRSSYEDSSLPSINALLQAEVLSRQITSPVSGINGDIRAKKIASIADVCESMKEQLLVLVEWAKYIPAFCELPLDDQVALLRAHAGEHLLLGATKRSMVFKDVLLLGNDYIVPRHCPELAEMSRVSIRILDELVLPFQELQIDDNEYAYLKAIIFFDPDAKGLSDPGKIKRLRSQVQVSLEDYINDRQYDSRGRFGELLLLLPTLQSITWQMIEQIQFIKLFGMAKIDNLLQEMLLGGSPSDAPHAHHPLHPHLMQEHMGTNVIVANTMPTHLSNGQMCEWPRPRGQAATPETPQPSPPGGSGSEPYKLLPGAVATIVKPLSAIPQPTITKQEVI
E coli growth: E. coli growth inhibition | OD600 absorbance (test concentration not listed) | 330,000 tested, 0.21% active | Escherichia coli growth, OD600, 23 h; stronger effect = lower value | AID 1053175;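 active = OD600 absorbance below the run mean of sample wells minus 3.6 SD, in any replicate, cut at about 0.56 in these data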;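 also: stock transfer was 300 nL into about 60 µL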
Ecoli rRNA inh OD600: second read-out of Ecoli rRNA inh, no call of its own (marks repeat the call); OD600 change, %; measured here: OD600 growth;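 optical density of the mix in the first replicate; 0 = DMSO median and -100 = no signal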
Ecoli rRNA inh RFP: recorded beside Ecoli rRNA inh, whose call it bears; RFP signal change, %; measured here: RFP humanized mutant strains;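 first replicate; 0 = DMSO median and -100 = no signal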
The depositor's hits bear a star; i = inactive; ? = inconclusive; / = not tested or not shown; & = joins results of further samples.

cpd	smiles	Vif TR-FRET	FGF22 binding	MLL AF4-AF9 inh	ALR H2O2 inh	Ecoli rRNA inh	Ecoli rRNA inh OD600	Ecoli rRNA inh RFP	HNF4A DNA FP	E coli growth
1	Cc1cc(C)c(S(=O)(=O)N2CCN(C(=O)c3ccccc3OCc3c(C)noc3C)CC2)c(C)c1	/	i	-1.5	/	-2	-26	3.7	0.3	0.66
2	O=C(O)C1Cc2ccccc2CN1S(=O)(=O)c1ccc2ccccc2c1 (stereo not drawn)	21%	/	/	95*	/	/	/	-0.8	0.74
3	Cc1ccccc1/C=N/N1C(=O)CSC1=S	-3%	i	1.6	31	-11	-5	2.3	0.2	/
4	Cc1c(C(=O)O)c2cc(O)ccc2n1-c1ccccc1	9%	/	/	80*	/	/	/	3.9	0.67
5	COc1ccc(C2=CSC3=NNC4(CCCCC4)NN23)cc1	7%	i	-9.2	98*	13	27	-1.8	-0.7	0.67
6	COc1ccc(-c2csc(NC(=O)CS(=O)(=O)c3ccccc3)n2)cc1OC	-4%	i	0.1	/	-48	-63	-8.5	2.9	/
7	CC1CCCC(NC(=O)c2cccc(S(=O)(=O)N3CCOCC3)c2)C1C (stereo not drawn)	-2%	i	-4.7	/	/	/	/	2.5	/
8	Cc1noc(NS(=O)(=O)c2ccc(N/C=C\C(=O)c3ccc(F)cc3)cc2)c1C	-4%	i	0.4	12	13	1	3.3	0.1	0.65
9	COc1ccccc1-c1cn(CC[C@H]2CC[C@@H](NC(=O)C3CC3)[C@@H](CO)O2)nn1	/	i	1.5	/	-2	1	-1.6	/	/
10	O=C(c1cc2c(c(-c3cccc(-c4ccncc4)c3)n1)[C@@H](CCO)N(C(=O)c1ccc3c(c1)OCO3)C2)N1CCOCC1	/	i	1.3	/	12	-5	-1.6	0.1	/
11	O=c1[nH]c(/C=C/c2cccc([N+](=O)[O-])c2)c([N+](=O)[O-])c(=O)[nH]1	/	i	2.6	10	5	11	-0.9	-3.7	0.59
12	CN1[C@H](C(=O)N2CCc3ccccc3C2)[C@@H](CO)[C@@H]2Cn3c(ccc(-c4cccnc4)c3=O)[C@@H]21	/	i	2.0	/	-2	4	0.1	/	/
13	C#CCn1c(=NC(=O)c2ccc(S(=O)(=O)N3CCCc4ccccc43)cc2)sc2cc(S(N)(=O)=O)ccc21	?	i	4.6	0	9	10	-0.6	4.0	0.69
14	Cc1ccc(NC(=O)COC(=O)CN2CCSC2=O)cc1F	5%	i	0.5	/	/	/	/	3.3	/
15	CCn1cc(/C=N\NC(=O)c2cc(-c3ccccc3OC)nc3ccccc23)c(C)n1	/	i	?	-5	-3	-5	6.6	6.2	/
16	OC(COc1c(F)cc(Br)cc1F)CN1CCc2ccccc2C1 (stereo not drawn)	/	i	-3.7	/	-22	-22	9.3	-2.8	0.63
17	Cc1ccc2nc(-c3ccco3)c(Nc3ccccc3)n2c1	/	/	/	27	/	/	/	-0.8	0.67
18	O=C(C[C@@H]1CC[C@@H]2[C@H](COC[C@H](O)CN2Cc2cccc(C(F)(F)F)c2)O1)NCCc1ccncc1	/	i	3.7	/	-5	-4	-6.2	/	/
19	CCCNC(=O)N1[C@H](C#N)[C@H](c2ccc(C#Cc3ccc(F)cc3)cc2)[C@H]1CO	/	i	0.1	/	-55	-74	-16	/	/
20	O=C(CNc1cccc(Cl)c1)NNC(=S)NCc1ccccc1	/	i	1.6	/	-24*	13*	-2.8*	1.2	0.68
21	COc1ccc(NC(=O)N[C@H]2CC[C@@H](CC(=O)NCc3ccccn3)O[C@H]2CO)cc1	/	i	2.2	/	3	-5	-0.7	/	/
22	COc1ccc(-c2oc3ccc(-c4ccc5c(c4)OCO5)cc3c2C#CC2(O)CCCCC2)cc1	/	i	/	14	1	12	0.4	-1.9	0.74
23	Cc1ccc(C2/C(=C(\O)c3ccc4c(c3)OCCO4)C(=O)C(=O)N2CC2CCCO2)cc1 (stereo not drawn)	-1%	i	-6.1	-4	1	7	-2.8	1.6	0.68
24	O=C(NC1CC(=O)N(c2ccc(F)cc2)C1)N1CCN(C(=O)c2ccco2)CC1 (stereo not drawn)	10%	i	0.0	-5	5	7	-2.8	-5.8	0.65
25	CCOC(=O)N=S(=O)(Oc1ccc([N+](=O)[O-])cc1)c1ccccc1 (stereo not drawn)	1%	/	/	-7	/	/	/	-0.3	0.72
26	CCS(=O)(=O)Nc1cccc(C2=NN(S(C)(=O)=O)C(c3cccs3)C2)c1 (stereo not drawn)	/	i	0.7	-10	-4	-6	0.1	5.7	0.69
27	CCOC(=O)C1=C(COC(=O)Cc2ccccc2[N+](=O)[O-])NC(=O)NC1C (stereo not drawn)	0%	i	1.6	/	/	/	/	-2.1	/
28	COc1ccc(C(=O)Nc2ccc(NC(=O)c3ccccc3OC)nc2)cc1	/	i	-0.4	/	-4	10	3.4	5.7	0.62
29	Cc1ccc(-c2nc(CSCC(=O)N3CCN(C(=O)c4ccco4)CC3)c(C)o2)cc1	5%	i	-3.5	99*	4	-2	3.2	2.0	0.75
30	COc1cc(C(C(=O)NC2CCCC2)N(C(=O)c2ccco2)c2ccccc2C(C)=O)cc(OC)c1OC (stereo not drawn)	/	i	2.0	-1	1	6	3.0	-4.7	0.65
31	C[C@@H]1CN([C@H](C)CO)C(=O)c2cc(-c3ccccc3)cnc2O[C@@H]1CN(C)C(=O)C1CCOCC1	9%	i	0.3&-3.3&-4.7	/	9&5	9&14	3.9&-2.0	0.9	/
32	O=C(CNC(=O)N1CC(=O)Nc2ccccc21)Nc1ccc(Cl)cc1	/	i	-3.6	0	2	4	1.8	-0.8	0.67
33	CCC(=O)Nc1nc2nc(C)cc(=O)n2[nH]1	?	/	/	-15	/	/	/	-3.7	/

Individual results from above.
Cc1ccc(-c2nc(CSCC(=O)N3CCN(C(=O)c4ccco4)CC3)c(C)o2)cc1 – Ecoli rRNA inh: 4
CN1[C@H](C(=O)N2CCc3ccccc3C2)[C@@H](CO)[C@@H]2Cn3c(ccc(-c4cccnc4)c3=O)[C@@H]21 – MLL AF4-AF9 inh: 2.0

13 entries from above, reformatted.
Every second line gives: Vif TR-FRET	FGF22 binding	MLL AF4-AF9 inh	ALR H2O2 inh	Ecoli rRNA inh	Ecoli rRNA inh OD600	Ecoli rRNA inh RFP	HNF4A DNA FP	E coli growth
[19] CCCNC(=O)N1[C@H](C#N)[C@H](c2ccc(C#Cc3ccc(F)cc3)cc2)[C@H]1CO
    /	i	0.1	/	-55	-74	-16	/	/
[20] O=C(CNc1cccc(Cl)c1)NNC(=S)NCc1ccccc1
    /	i	1.6	/	-24*	13*	-2.8*	1.2	0.68
[21] COc1ccc(NC(=O)N[C@H]2CC[C@@H](CC(=O)NCc3ccccn3)O[C@H]2CO)cc1
    /	i	2.2	/	3	-5	-0.7	/	/
[22] COc1ccc(-c2oc3ccc(-c4ccc5c(c4)OCO5)cc3c2C#CC2(O)CCCCC2)cc1
    /	i	/	14	1	12	0.4	-1.9	0.74
[23] Cc1ccc(C2/C(=C(\O)c3ccc4c(c3)OCCO4)C(=O)C(=O)N2CC2CCCO2)cc1 (stereo not drawn)
    -1%	i	-6.1	-4	1	7	-2.8	1.6	0.68
[24] O=C(NC1CC(=O)N(c2ccc(F)cc2)C1)N1CCN(C(=O)c2ccco2)CC1 (stereo not drawn)
    10%	i	0.0	-5	5	7	-2.8	-5.8	0.65
[25] CCOC(=O)N=S(=O)(Oc1ccc([N+](=O)[O-])cc1)c1ccccc1 (stereo not drawn)
    1%	/	/	-7	/	/	/	-0.3	0.72
[26] CCS(=O)(=O)Nc1cccc(C2=NN(S(C)(=O)=O)C(c3cccs3)C2)c1 (stereo not drawn)
    /	i	0.7	-10	-4	-6	0.1	5.7	0.69
[27] CCOC(=O)C1=C(COC(=O)Cc2ccccc2[N+](=O)[O-])NC(=O)NC1C (stereo not drawn)
    0%	i	1.6	/	/	/	/	-2.1	/
[28] COc1ccc(C(=O)Nc2ccc(NC(=O)c3ccccc3OC)nc2)cc1
    /	i	-0.4	/	-4	10	3.4	5.7	0.62
[29] Cc1ccc(-c2nc(CSCC(=O)N3CCN(C(=O)c4ccco4)CC3)c(C)o2)cc1
    5%	i	-3.5	99*	4	-2	3.2	2.0	0.75
[30] COc1cc(C(C(=O)NC2CCCC2)N(C(=O)c2ccco2)c2ccccc2C(C)=O)cc(OC)c1OC (stereo not drawn)
    /	i	2.0	-1	1	6	3.0	-4.7	0.65
[31] C[C@@H]1CN([C@H](C)CO)C(=O)c2cc(-c3ccccc3)cnc2O[C@@H]1CN(C)C(=O)C1CCOCC1
    9%	i	0.3&-3.3&-4.7	/	9&5	9&14	3.9&-2.0	0.9	/

Not all compounds are listed; count on the stated rates, not on these rows.
